GIRK2 act – opens human GIRK2 potassium channels; calls only for hits at 25 µM; hit rate 0.05% among 63,000; HEK293-GIRK2 thallium flux, Thallos fluorescence; AID 1259325;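 active = among the strongest 0.2% of first-round signals and kept after retests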;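 also: first round at about 10 µM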
Target sequence (P48051 whole entry, looked up): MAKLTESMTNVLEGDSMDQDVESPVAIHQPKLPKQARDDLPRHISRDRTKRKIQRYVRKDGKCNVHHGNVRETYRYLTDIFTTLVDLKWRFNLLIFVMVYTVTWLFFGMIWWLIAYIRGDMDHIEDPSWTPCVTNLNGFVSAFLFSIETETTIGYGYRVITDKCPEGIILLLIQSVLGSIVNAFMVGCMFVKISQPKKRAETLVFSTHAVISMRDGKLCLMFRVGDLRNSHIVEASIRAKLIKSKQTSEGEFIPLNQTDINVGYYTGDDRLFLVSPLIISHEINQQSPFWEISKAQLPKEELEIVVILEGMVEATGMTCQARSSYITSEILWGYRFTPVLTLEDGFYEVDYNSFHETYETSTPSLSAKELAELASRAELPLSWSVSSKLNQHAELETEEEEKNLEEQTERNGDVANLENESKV
Calls only; i = inactive. A portion of the library, so the mix of outcomes need not match the whole.

Preview:
SMILES	GIRK2 act
O=C(c1ccc(-c2cc(C(F)(F)F)ccc2Cl)o1)N1CC2CC(C1)c1cccc(=O)n1C2 (stereo not given)	i
COc1ccc(CC(=O)N2CCN(CC(O)c3cccs3)CC2)cc1OC (stereo not given)	i
CCCCC/C=C\C/C=C\C/C=C\CCCCCCC(=O)NCCO	i
c1cc(N2CCNCC2)c2cnccc2c1	i
N#C/C(=C\c1ccc(O)c(O)c1)C(N)=S	i
CCCCC/C=C\C/C=C\C/C=C\C/C=C\CCCCOC(CO)CO	i
C=CC(C)(C)[C@@]12C[C@H]3C(=O)N/C(=C\c4cnc[nH]4)C(=O)N3[C@@H]1Nc1ccccc12	i
C=C1C[C@@H]2[C@H](CC[C@]3(C)C(=O)CC[C@@H]23)[C@@]2(C)C=CC(=O)C=C12	i
c1cc(N2CCNCC2)c2cc[nH]c2c1	i
CCCCC/C=C\C/C=C\C/C=C\C/C=C\CCCC(=O)Nc1cccc(O)c1	i
COc1ccc(Cl)cc1C(=O)N1CC2CC(C1)c1cccc(=O)n1C2 (stereo not given)	i
CN(C)CC#CCNC(=O)CSC1CCCC1	i
CC(C)N(CC#CCNC(=O)c1ccccc1)C(C)C	i
COc1cc(C(=O)O[C@H]2[C@@H]3C=CO[C@@H](O[C@@H]4O[C@H](CO)[C@@H](O)[C@H](O)[C@H]4O)[C@@H]3[C@@]3(CO)O[C@@H]23)ccc1O	i

The whole of this part, previewed entries included:
SMILES	GIRK2 act
O=C(c1ccc(-c2cc(C(F)(F)F)ccc2Cl)o1)N1CC2CC(C1)c1cccc(=O)n1C2 (stereo not given)	i
COc1ccc(CC(=O)N2CCN(CC(O)c3cccs3)CC2)cc1OC (stereo not given)	i
CCCCC/C=C\C/C=C\C/C=C\CCCCCCC(=O)NCCO	i
c1cc(N2CCNCC2)c2cnccc2c1	i
N#C/C(=C\c1ccc(O)c(O)c1)C(N)=S	i
CCCCC/C=C\C/C=C\C/C=C\C/C=C\CCCCOC(CO)CO	i
C=CC(C)(C)[C@@]12C[C@H]3C(=O)N/C(=C\c4cnc[nH]4)C(=O)N3[C@@H]1Nc1ccccc12	i
C=C1C[C@@H]2[C@H](CC[C@]3(C)C(=O)CC[C@@H]23)[C@@]2(C)C=CC(=O)C=C12	i
c1cc(N2CCNCC2)c2cc[nH]c2c1	i
CCCCC/C=C\C/C=C\C/C=C\C/C=C\CCCC(=O)Nc1cccc(O)c1	i
COc1ccc(Cl)cc1C(=O)N1CC2CC(C1)c1cccc(=O)n1C2 (stereo not given)	i
CN(C)CC#CCNC(=O)CSC1CCCC1	i
CC(C)N(CC#CCNC(=O)c1ccccc1)C(C)C	i
COc1cc(C(=O)O[C@H]2[C@@H]3C=CO[C@@H](O[C@@H]4O[C@H](CO)[C@@H](O)[C@H](O)[C@H]4O)[C@@H]3[C@@]3(CO)O[C@@H]23)ccc1O	i
O=C(Nc1ccccc1F)N1CCC2(CC1)OCCO2	i
COc1cccc(-c2cc(C(=O)N3CC4CC(C3)c3cccc(=O)n3C4)[nH]n2)c1 (stereo not given)	i
O=C(CCS(=O)(=O)Cc1ccccc1)Nc1ccc(Cl)cc1C(=O)c1ccccc1	i
O=C(Cc1cccc2ccccc12)N1CCCSCC1CN1CCCC1 (stereo not given)	i
O=C(Nc1cccc(C(F)(F)F)c1)c1cc2cccnc2n(Cc2ccccc2)c1=O	i
Cn1c(CN2CCN(C(=O)COc3ccc(F)cc3)CC2)nc2ccccc21	i
CCC(C)[C@H]1C(=O)O[C@H](C(C)C)C(=O)N(C)[C@@H](C(C)C)C(=O)O[C@H](C(C)C)C(=O)N(C)[C@@H](C(C)C)C(=O)O[C@H](C(C)C)C(=O)N1C (stereo not given in full)	i
O=C(NCCc1c[nH]c2ccccc12)c1cc2cccnc2n(Cc2ccccc2F)c1=O	i
CN(C)C(=O)Oc1ccc2c(c1)O/C(=C\c1ccc(Cl)c(Cl)c1)C2=O	i
COc1ccc(CCN)cc1OC	i
O=C(COc1ccccc1F)N1CCN(CCn2cccn2)CC1	i
CC1=C[C@H]2O[C@@H]3C[C@@H](OC(=O)/C=C\C=C\[C@@H](OCCC4=CC(=O)OC4)[C@@H](C)O)[C@](C)([C@@]2(CO)CC1)[C@]31CO1	i
O=C(Cc1noc2ccccc12)N1CCN(CCn2cccn2)CC1	i
CC(=O)c1ccc(NC(=O)c2cc3cccnc3n(Cc3ccccc3)c2=O)cc1	i
O=S(=O)(c1ccccc1)N1CCN(c2cccc(C(F)(F)F)c2)CC1	i
CC(=O)[C@]12CC/C=C\C(=O)O[C@@H]3C[C@H]4O[C@@H]5C=C(C)CC[C@]5(COC(=O)C5O[C@@]5(CCO1)C2O)[C@]3(C)[C@]41CO1 (stereo not given in full)	i
N#Cc1cc(Br)ccc1O	i
COc1ccc(C23C=C4C5CC6(O)CC7N(CCC57c5ccc(OC)c(OC)c5)C4(CC2NCC3)O6)cc1OC (stereo not given)	i

2 records drawn at random from those above, as already listed:
SMILES	GIRK2 act
O=C(COc1ccccc1F)N1CCN(CCn2cccn2)CC1	i
CC1=C[C@H]2O[C@@H]3C[C@@H](OC(=O)/C=C\C=C\[C@@H](OCCC4=CC(=O)OC4)[C@@H](C)O)[C@](C)([C@@]2(CO)CC1)[C@]31CO1	i
